From PubChem
RE007 growth inh: qHTS Assay for Inhibitors of the HIV-1 protein Vpr; S. pombe RE007 Vpr strain, BacTiter-Glo ATP luminescence, 24 h; control for the full effect not named in the record; 360,000 tested, 0.21% active; Potency, µM (highest dose often 92.2 µM), inactives show at the highest dose activity change, negative = less growth; active = well fitted falling curve with a large enough effect; inconclusive = small, poorly fitted or top-dose-only effect; inactive = no such curve, though single readings can be large or run the other way;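 also: % is scaled to controls: 0 for no effect and ±100 for the full control effect; nearly all actives have a fitted effect of over 50% in size; the assay follows cell death caused by Vpr and the record does not say whether a fall means rescue or toxicity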
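Fission yeast RE007 carrying one integrated HIV-1 vpr copy, seeded at OD 0.01 in PMG+AL medium with 23 nL pinned compound. Grown 24 h at 30 degrees; viability read by BacTiter-Glo luminescence after 5 min.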
SARS PLpro yeast: qHTS of Yeast-based Assay for SARS-CoV PLP | S. cerevisiae expressing SARS-CoV PLpro, growth rescue; control for the full effect not named in the record | Potency, µM (titrated, usually from 32.9 µM), inactives show top-dose activity, positive = growth rescue | 330,000 tested, 0.19% active; also: 0% is about no effect; nearly all actives have a fitted effect of over 55% in size; growth read by luminescence after 48 h
Lassa entry inh: qHTS for Inhibitors of binding or entry into cells for Lassa Virus | Lassa virus pseudotype entry inhibition, cell reporter; control for the full effect not named in the record | Potency, µM (highest dose often 37.9 µM), inactives show at the top dose activity change, negative = inhibition, usual class: inhibitors | 300,000 tested, 1.2% active; active means well fitted inhibition curve with a large enough effect; inconclusive means small, poorly fitted or top-dose-only effect, or effect the other way; inactive means flat fitted curve, though single readings scatter; tested in HEK293 cells; also: % is scaled to controls: 0 for no effect and ±100 for the full control effect; nearly all actives have a fitted effect of over 50% in size; luciferase read-out
MARV entry inh: qHTS for inhibitors of binding or entry into cells for Marburg Virus | Marburg virus pseudotyped entry inhibition, cell reporter; control for the full effect not named in the record; about a third of the inactives were read at about 46 µM | Potency, µM (top dose mostly 37.8 µM), without a hit: at the highest dose activity change, negative = inhibition, most hits filed as inhibitors | 300,000 tested, 1.8% active; active = well fitted inhibition curve with a large enough effect; inconclusive = small, poorly fitted or top-dose-only effect, or effect the other way; inactive = flat fitted curve, though single readings scatter; tested in HEK293 cells; about a fifth of its hits are not listed in these tables; also: % is scaled to controls: 0 for no effect and ±100 for the full control effect; luciferase read-out
Cruzain Triton: qHTS Assay for Promiscuous and Specific Inhibitors of Cruzain (with detergent); Cruzipain (Trypanosoma cruzi), P25779; purified cruzain, Z-FR-AMC fluorescence, 0.01% Triton; Potency, µM, for the others: max response, negative = inhibition, usual class: inhibitors; 200,000 tested, 0.43% active; active = well fitted curve in the direction sought with a large enough effect; inconclusive = small, poorly fitted or top-dose-only effect, or another doubt; inactive = no such curve, though single readings can be large; an effect the other way counts as inactive or inconclusive;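 also: plate controls were neutral wells for no effect and buffer without enzyme for full effect; nearly all actives have a fitted effect of over 40% in size; top concentration of the series not given in the record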
Target sequence (P25779 123-467 limits assumed): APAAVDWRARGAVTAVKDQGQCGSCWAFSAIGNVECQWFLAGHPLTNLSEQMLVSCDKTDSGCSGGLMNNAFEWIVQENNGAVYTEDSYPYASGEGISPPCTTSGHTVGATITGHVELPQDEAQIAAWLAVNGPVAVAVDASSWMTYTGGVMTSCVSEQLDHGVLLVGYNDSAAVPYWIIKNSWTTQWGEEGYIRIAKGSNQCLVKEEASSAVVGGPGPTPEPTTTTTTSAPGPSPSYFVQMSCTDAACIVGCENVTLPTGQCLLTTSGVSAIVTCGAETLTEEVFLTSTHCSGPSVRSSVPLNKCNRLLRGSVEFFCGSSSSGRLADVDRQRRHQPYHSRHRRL
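Sodium acetate buffer (100 mM, pH 5.5) containing 5 mM DTT and 0.01% Triton X-100 hosted 1.5 nM cruzain and test compound for 15 min at room temperature. Cleavage of 2 uM Z-FR-AMC was then tracked by fluorescence.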
Cruzain inh noDet: qHTS Assay for Promiscuous and Specific Inhibitors of Cruzain (without detergent). Potency, µM, for inactives: max response, negative = inhibition, hits mostly inhibitors. 200,000 tested, 2.3% active. AID 1476, 2009. Cruzipain (Trypanosoma cruzi), P25779. purified cruzain, Z-FR-AMC fluorescence, no detergent; active = well fitted curve in the direction sought with a large enough effect; inconclusive = small, poorly fitted or top-dose-only effect, or another doubt; inactive = no such curve, though single readings can be large; an effect the other way counts as inactive or inconclusive;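 also: plate controls were enzyme without inhibitor for no effect and buffer without enzyme for full effect; nearly all actives have a fitted effect of over 40% in size; top concentration of the series not given in the record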
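Detergent-free condition (0.00005% Triton X-100) in acetate buffer pH 5.5 with DTT. 1.5 nM enzyme and compound were pre-mixed 15 min, then 2 uM Z-FR-AMC substrate added; reaction progress from fluorescence change between first and third reads (60 s).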
2A StopGo: High Throughput Screening for Foot and Mouth Disease Virus Antivirals. Potency, µM (top dose mostly 57.9 µM), for the others: top-dose signal change, negative = less light. human cells with a luciferase reporter of 2A StopGo recoding; control for the full effect not named in the record. 410,000 tested, 1.2% active; active = well fitted falling curve with a large enough effect; inconclusive = small, poorly fitted or top-dose-only effect; inactive = no such curve, though single readings can be large or run the other way; tested in HEK293T cells; also: % is scaled to controls: 0 for no effect and ±100 for the full control effect; nearly all actives have a fitted effect of over 45% in size; luciferase light after 4 h
NS1 function inh: qHTS Assay for Inhibitors of Influenza NS1 Protein Function | AID 2326, 2010 | 270,000 tested, 0.4% active | S. cerevisiae slowed by influenza A NS1, growth recovery by OD600 | Potency, µM (highest dose often 46.1 µM), without a hit: at the highest dose activity, positive = more growth; also: actives are rising curves; nearly all actives have a fitted effect of over 50% in size
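Read-out: OD600 growth recovery of NS1-expressing budding yeast. Cells grown overnight at 30C in -URA glucose medium, washed, resuspended and diluted 1:100 in 2% galactose assay medium, pH 6.0. Same strain lacking NS1 served as positive control.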
* marks the source's active call; other numbers are inactive results; ? = inconclusive; / = not tested or not shown; & = joins results of further samples; [ ] = another dose, or the depositor's remark. Unless noted, calls follow the shape of the dose curve; as a rule, active means well fitted rising curve with a large enough effect; inconclusive means small, poorly fitted or top-dose-only effect; inactive means no such curve, though single readings can be large or run the other way. Potency is read from the fitted curve at half-maximal effect.

| canonical_smiles | RE007 growth inh | 2A StopGo | MARV entry inh | Cruzain Triton | SARS PLpro yeast | Lassa entry inh | Cruzain inh noDet | NS1 function inh |
| --- | --- | --- | --- | --- | --- | --- | --- | --- |
| O=[N+]([O-])c1cc(O)c2ncccc2c1 | 7.9µM* | -22% | ? | / | -18% | ? | / | / |
| Cc1cccc(-n2ccnc2SCC(=O)N2CCCc3ccccc32)c1C | 19% | 0% | -23% | -2.2% | 23% | -4% | 0% | -15% |
| NC(=O)CSc1nnc(NC(=O)c2cccc(S(=O)(=O)N3CCCCC3)c2)s1 | -29% | 4% | 11%[14.2 µM] | / | -3% | -30% | / | / |
| Cc1[nH]c2ccc(C(=O)Nc3ccncc3)cc2c1C | -17% | -22% | / | / | -2% | / | / | 2% |
| COC(=O)Cn1cnc2c(cnn2-c2ccc(C)cc2)c1=O | 10% | 17% | / | / | 0% | / | / | 3% |
| COc1ccccc1NC(=O)CSCc1cc(=O)n2c(C)csc2n1 | -1% | -8% | / | / | 4% | / | / | -13% |
| Cc1cc(C)c(C#N)c(SCC(=O)NC2CC2)n1 | 16% | 13% | 1% | -0.7% | 6% | 14% | -2% | -7% |
| O=C(CCCn1c(=O)c2cccn2c2cccnc21)Nc1ccccc1Br | / | -4% | / | -0.8% | / | 16%[46.1 µM] | 8% | / |
| CCOC(=O)C1(Cc2ccccc2)CCCN(S(=O)(=O)N(C)C)C1 (stereo not given) | -1% | -24% | / | / | 4% | / | / | 1% |
| Cc1ccc(NC(=O)Nc2c[nH]c(=O)[nH]c2=O)c(Cl)c1 | / | -15% | / | 2.5% | / | 13%[46.1 µM] | ? | / |
| COc1cc(OC)cc(-c2nnc(SCC(=O)N3CCOCC3)o2)c1 | -6% | -3% | 15%[46.1 µM] | 2.6% | ? | 1% | 4% | -15% |
| CCC(=O)N1CCNC(=O)C1CC(=O)Nc1ccc(C)c(Cl)c1 (stereo not given) | 10% | -8% | ? | -1.1% | 7% | 10% | 3% | 4% |
| CC1CCC(NC(=O)c2ccc(N3CCCC3=O)cc2)CC1 (stereo not given) | 8% | 54%[activator] | 38% | 1.9% | 3% | 0% | 5% | 2% |
| CCOCCCNc1ncnc2c1cnn2-c1ccc(C)c(C)c1 | / | -5% | / | -0.4% | / | -13%[46.1 µM] | 6% | / |
| Cc1cn2c(=O)c(S(=O)(=O)NCc3ccccc3Cl)c(C)nc2s1 | / | 18% | / | 0.4% | / | 7%[46.1 µM] | 6% | / |

Arranged by molar mass (ascending): part of the list above.
| canonical_smiles | RE007 growth inh | 2A StopGo | MARV entry inh | Cruzain Triton | SARS PLpro yeast | Lassa entry inh | Cruzain inh noDet | NS1 function inh |
| --- | --- | --- | --- | --- | --- | --- | --- | --- |
| O=[N+]([O-])c1cc(O)c2ncccc2c1 | 7.9µM* | -22% | ? | / | -18% | ? | / | / |
| Cc1cc(C)c(C#N)c(SCC(=O)NC2CC2)n1 | 16% | 13% | 1% | -0.7% | 6% | 14% | -2% | -7% |
| Cc1[nH]c2ccc(C(=O)Nc3ccncc3)cc2c1C | -17% | -22% | / | / | -2% | / | / | 2% |
| Cc1ccc(NC(=O)Nc2c[nH]c(=O)[nH]c2=O)c(Cl)c1 | / | -15% | / | 2.5% | / | 13%[46.1 µM] | ? | / |
| COC(=O)Cn1cnc2c(cnn2-c2ccc(C)cc2)c1=O | 10% | 17% | / | / | 0% | / | / | 3% |
| CC1CCC(NC(=O)c2ccc(N3CCCC3=O)cc2)CC1 (stereo not given) | 8% | 54%[activator] | 38% | 1.9% | 3% | 0% | 5% | 2% |
| CCOCCCNc1ncnc2c1cnn2-c1ccc(C)c(C)c1 | / | -5% | / | -0.4% | / | -13%[46.1 µM] | 6% | / |
| CCC(=O)N1CCNC(=O)C1CC(=O)Nc1ccc(C)c(Cl)c1 (stereo not given) | 10% | -8% | ? | -1.1% | 7% | 10% | 3% | 4% |
| CCOC(=O)C1(Cc2ccccc2)CCCN(S(=O)(=O)N(C)C)C1 (stereo not given) | -1% | -24% | / | / | 4% | / | / | 1% |
| COc1cc(OC)cc(-c2nnc(SCC(=O)N3CCOCC3)o2)c1 | -6% | -3% | 15%[46.1 µM] | 2.6% | ? | 1% | 4% | -15% |
| COc1ccccc1NC(=O)CSCc1cc(=O)n2c(C)csc2n1 | -1% | -8% | / | / | 4% | / | / | -13% |
| Cc1cccc(-n2ccnc2SCC(=O)N2CCCc3ccccc32)c1C | 19% | 0% | -23% | -2.2% | 23% | -4% | 0% | -15% |
| Cc1cn2c(=O)c(S(=O)(=O)NCc3ccccc3Cl)c(C)nc2s1 | / | 18% | / | 0.4% | / | 7%[46.1 µM] | 6% | / |
| O=C(CCCn1c(=O)c2cccn2c2cccnc21)Nc1ccccc1Br | / | -4% | / | -0.8% | / | 16%[46.1 µM] | 8% | / |

(list continues)
| canonical_smiles | RE007 growth inh | 2A StopGo | MARV entry inh | Cruzain Triton | SARS PLpro yeast | Lassa entry inh | Cruzain inh noDet | NS1 function inh |
| --- | --- | --- | --- | --- | --- | --- | --- | --- |
| CSc1nnc(NC(=O)c2nc(S(=O)(=O)Cc3ccc(C)cc3)ncc2Cl)s1 | 2% | 13µM* | ? | / | 2% | ? | / | 9% |
| CCOC(=O)N1CCC(NC(=O)CNS(=O)(=O)c2ccc(Br)s2)CC1 | 12% | 8% | -5%&-28% | 4.6% | 9% | -15% | -4% | -3% |
| CCO/C=C1\SC(=S)N(c2ccc(Cl)cc2)C1=O | -19% | -5% | -8%[46.1 µM] | / | -1% | 23%[46.1 µM] | / | 1% |
| COCCNC(=O)c1ccc(C(=O)C(=O)c2ccccc2)cc1 | 3% | 0% | 23% | -5.7% | -5% | 8% | 1% | 4% |
| COc1ccc(OC)c(-n2c(=S)[nH]c3cc(C(=O)N4CCCCC4)ccc3c2=O)c1 | 9% | 14% | ? | / | 1% | 0% | / | / |
| CCC(=O)Nc1nnc(/C=C/c2ccc(OC)cc2)s1 | 28% | 25% | -7%[46.1 µM] | / | -2% | ? | / | -7% |
| COc1cccc(-c2cccc(NC(=O)C3CCN(Cc4ccc(C)o4)CC3)c2)c1 | -2% | -16% | / | / | -4% | / | / | 1% |
| CSc1nc2c(c(=O)[nH]c(=O)n2C)n1CCCc1ccccc1 | 7% | -13% | / | / | 2% | / | / | 1% |
| O=C(CSc1nc2ncccc2[nH]1)NCCc1ccccc1 | -8% | -10% | / | / | 1% | / | / | 1% |
| CCOc1ccc(NC(=O)C2CCCN(S(=O)(=O)c3c(C)n[nH]c3C)C2)cc1 (stereo not given) | -1% | ? | / | / | 1% | / | / | -14% |
| O=C(NC(=S)NCc1cccnc1)c1cccc2ccccc12 | 32% | -12% | ? | / | -1% | -12%[46.1 µM] | / | 1% |
| COc1ccc(CNC(=O)[C@H](Cc2ccccc2)NC(=O)C2CCNCC2)cc1 | 9% | -13% | ? | / | 17% | ? | / | 14% |
| CCCC(=O)Nc1ccc(-c2nc3ncccc3o2)cc1C | / | 44%[activator] | ? | -8.4% | / | 0%[46.1 µM] | -8% | / |
| Cc1ccc2c(c1)NC(=O)C(CC(=O)NCCCN1CCc3ccccc3C1)O2 (stereo not given) | -7% | 2% | -5% | -3.8% | 7% | / | -13% | -5% |
| COc1ccc(NC(=O)Cn2c(C)cc(=O)c3ccccc32)cc1 | 0% | ? | ? | -2.2% | 38% | ? | -12% | -2% |
| Brc1ccc(Oc2nsnc2N2CCOCC2)cc1 | ? | -4% | -8% | -2.0% | -7% | -10% | -8% | -15% |
| COc1ccc(-c2nnc(SCC(N)=O)n2N)cc1 | -3% | 19% | 4% | 3.7% | 4% | -5% | -1% | 2% |
| CCOc1ccc(Nc2nc(CC(=O)OC)cc(=O)[nH]2)cc1 | -1% | -8% | 3% | 4.7% | 2% | ? | -8% | 11% |
